High-throughput results: PubChem BioAssay, several laboratories
Vif TR-FRET = inhibitors of Vif binding to APOBEC3G peptide, primary screen, biochemical, TR-FRET, GST-Vif 1-94, biotin-A3G peptide, dose response retest (AID 1117319); TR-FRET GST-Vif / biotin-A3G peptide binding; higher % means a stronger effect; test concentration not given here; strong numbers were not always called active; inhibition, %, or IC50 in µM where a hit was titrated; 260,000 tested, 0.57% active;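 active = above the screen mean plus three standard deviations and confirmed in dose response; inconclusive = results disagree or hit not tested in dose response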;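 note: Vif residues 1-94 fused to GST binding biotinylated APOBEC3G peptide 110-148; 0% = full assay without inhibitor and 100% = GST in place of GST-Vif; retest series ran down from 100 µM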
Calb FLC = C. albicans growth modulation with fluconazole | C. albicans CaCi-2 (fluconazole-resistant clinical isolate) + fluconazole, Alamar Blue growth, 48 h | growth inhibition, % (test concentration not listed) | 300,000 tested, 0.57% active;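 active = most replicates above 75%; inconclusive = exactly half above 75%; inactive = most below 75%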;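 note: all wells also contain fluconazole at 8 µg/ml as a sub-toxic cotreatment; 0% = median of DMSO wells and 100% = median of geldanamycin control wells; wells of about 8 µL received 7.5 nL stock; the first replicate is given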
Beta cell apopt = blocks beta cell apoptosis | INS-1E cytokine-induced death, ATP luminescence, 48 h; percent of positive-control rescue, neutral wells zero | protection from apoptosis, % (test concentration not listed) | 300,000 tested, 0.8% active | AID 435005;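 active = all replicates at 75% or more, or half of them and the mean; inconclusive = half reach 75% but not the mean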;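 note: 0% = cytokine-treated negative control wells and 100% = positive control rescue; higher means more ATP so stronger rescue from cytokine killing; wells of about 40 µL received 100 nL stock; the first replicate is given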
RanGTP-Imp inh = inhibitors of RanGTP-importin-beta interaction, primary screen, biochemical, FRET, CFP-Ran, YFP-importin-beta, homogeneous; cell-free CFP-Ran/YFP-importin-beta FRET ratio; inhibition, % (concentration not given with the values); 300,000 tested, 1.1% active;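 active = most replicates above 15%; inconclusive = exactly half above 15%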;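 note: 0% = DMSO wells and 100% = Ran loaded with GDP instead of GTP; wells of about 40 µL received 100 nL stock; the first replicate is given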
LANA-H2A inh = blocks KSHV LANA binding to histone H2A/H2B | AID 2629 | Q9QR71 | cell-free LANA-H2A/H2B peptide, fluorescence polarization | inhibition, % (concentration not given with the values) | 320,000 tested, 0.6% active; in the data active = inhibition mostly above about 10%, no sharp cut-off; inactive = mostly below about 6.7%;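 note: stock transfer was 7.5 nL into about 10 µL; 0% = median of vehicle wells and 100% = median of positive control wells; one replicate is shown; the record names a cut of 25% in any replicate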
Target sequence (Q9QR71 whole entry, looked up): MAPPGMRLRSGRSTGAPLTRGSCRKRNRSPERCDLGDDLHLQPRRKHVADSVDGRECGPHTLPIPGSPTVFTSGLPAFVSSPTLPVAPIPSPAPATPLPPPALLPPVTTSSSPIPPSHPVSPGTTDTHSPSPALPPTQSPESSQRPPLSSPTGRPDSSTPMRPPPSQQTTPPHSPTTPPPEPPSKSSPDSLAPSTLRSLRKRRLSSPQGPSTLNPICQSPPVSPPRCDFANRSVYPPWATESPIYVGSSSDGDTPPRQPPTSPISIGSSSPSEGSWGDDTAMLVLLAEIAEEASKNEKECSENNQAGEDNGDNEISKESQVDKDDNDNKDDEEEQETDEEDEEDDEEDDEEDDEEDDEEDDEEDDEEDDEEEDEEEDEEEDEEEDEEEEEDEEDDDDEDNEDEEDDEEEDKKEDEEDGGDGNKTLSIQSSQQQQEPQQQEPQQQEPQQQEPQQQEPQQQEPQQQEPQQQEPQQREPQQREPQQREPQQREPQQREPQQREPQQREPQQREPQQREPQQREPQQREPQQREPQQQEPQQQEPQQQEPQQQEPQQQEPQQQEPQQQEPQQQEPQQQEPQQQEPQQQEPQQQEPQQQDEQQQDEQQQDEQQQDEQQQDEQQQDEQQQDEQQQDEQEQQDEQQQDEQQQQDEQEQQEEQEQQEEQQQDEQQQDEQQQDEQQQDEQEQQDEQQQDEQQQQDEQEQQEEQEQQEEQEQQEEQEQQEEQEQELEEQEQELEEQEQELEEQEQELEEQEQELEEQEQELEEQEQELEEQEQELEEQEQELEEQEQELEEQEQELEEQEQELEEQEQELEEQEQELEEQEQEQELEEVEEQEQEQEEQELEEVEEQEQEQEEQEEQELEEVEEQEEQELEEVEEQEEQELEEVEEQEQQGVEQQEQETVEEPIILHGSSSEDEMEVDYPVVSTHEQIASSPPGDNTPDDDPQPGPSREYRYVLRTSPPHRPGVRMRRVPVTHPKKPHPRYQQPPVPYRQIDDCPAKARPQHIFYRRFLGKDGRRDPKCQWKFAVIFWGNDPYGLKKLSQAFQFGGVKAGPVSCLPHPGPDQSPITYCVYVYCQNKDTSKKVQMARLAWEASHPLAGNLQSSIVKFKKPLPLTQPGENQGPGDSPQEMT
A1 inh = inhibitors of the anti-apoptotic protein A1, read as caspase activation; caspase activation, % (concentration not given with the values); 330,000 tested, 0.066% active; MEF A1-2A-BIM cells, Caspase-Glo 3/7 luminescence, 3 h; percent of clofoctol response, vehicle zero;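 active = over half of replicate activation scores above 10%, or exactly half above 10 with the replicate mean above 10; inconclusive = replicate mean below 10 yet half the replicates above 10; inactive = over half of replicates below 10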;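 note: wells of about 30 µL received 50 nL stock; many hits fall short of the cut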
T cruzi repl = blocks replication of Trypanosoma cruzi; 300,000 tested, 1.4% active; T. cruzi beta-gal in NIH3T3, luminescence, 90 h; inhibition, % (concentration not given with the values); AID 1885;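 active = mean inhibition across valid replicates above about 55%, limit read from the data; inconclusive = mean below that limit but half or more replicates reach it; inactive = mean below it, under half of replicates reach it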;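 note: signal also drops with host cell toxicity which is not excluded here; 0% = plate median of DMSO wells and 100% = zero luminescence signal; higher percent means less beta-gal luminescence so fewer parasites; stock transfer was 50 nL into about 50 µL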
MLL AF4-AF9 inh = blocks AF4 peptide binding to human AF9; AlphaScreen, biotin-AF4 peptide binding to FLAG-AF9; AID 651704; inhibition, % at 10 µM; 350,000 tested, 0.47% active; P42568;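 active = every replicate reaching a set inhibition limit, whatever the replicate mean, cut at about 25% in these data; inconclusive = mean inhibition reaches that limit but some replicates miss it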;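 note: 0% = plate neutral control median and 100% = total signal loss; the record names both 10 and 1 µM as test concentration; the first replicate is given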
* marks the source's active call; other numbers are inactive results; i = inactive; ? = inconclusive; nt = no result given; & = joins results of further samples.

SMILES	Vif TR-FRET	Calb FLC	Beta cell apopt	RanGTP-Imp inh	LANA-H2A inh	A1 inh	T cruzi repl	MLL AF4-AF9 inh
Cc1nc(-c2cnn(-c3ccccc3)c2)c2cc(C)oc2n1	27%	-12	6	2.6	-3.3	0.2	-1	nt
C/C=C/C=C/[C@H]1Cc2cc(O)cc(O)c2O1	nt	7	3	22*	5.9	0.1	23	nt
Clc1ccc(OCc2nc(-c3ccncc3)no2)c(Cl)c1	-3%	12	3	2.9	5.0	-1.1	3	nt
O=P(O)(O)c1ccccc1OCCOCCOc1ccccc1P(=O)(O)O	1%	nt	-1	nt	-5.1	-0.6	nt	nt
COC(=O)c1sccc1S(=O)(=O)N1CCCC(N(C)CCc2ccccn2)C1 (stereo not drawn)	nt	2	19	4.7	-2.7	-1.0	11	-4.5
CCN(CC)C(=O)CSc1nnc(-c2ccc(S(=O)(=O)NCc3ccccc3Cl)cc2)o1	1%&-7%	-11	15	4.5	i	0.0	17	nt
COc1ccccc1NC(=O)c1ccc2snnc2c1	nt	41	1	-0.9	9.4	-1.4	-23	-1.2
COc1ccc(NC(=O)CN2C(=O)CSC2=O)cc1	2%	-14	3	-1.3	-4.8	0.7	16	-3.1
CCCOc1ccc(C2CC(=O)Nc3cc(OC)c(OC)cc32)cc1 (stereo not drawn)	nt	2	-1	1.4	1.3	0.3	-11	1.4
O=C(COC(=O)Cc1c(Cl)cccc1Cl)NC1CCCC1	nt	nt	-2	nt	1.8	-0.7	nt	-1.8
Cc1cccc(N(CC(=O)N/N=C/c2ccc(OCC(=O)NCc3ccco3)cc2)S(C)(=O)=O)c1C	74%	5	-3	-0.6	-3.7	-0.6	-8	nt
O=C(c1cccc(S(=O)(=O)N2CCCCCC2)c1)N1CCN(c2ccccc2)CC1	-3%	-4	-9	-1.1	5.4	-0.1	5	0.4
COc1ccc(/C=C2\N=C(c3ccc(C)cc3)OC2=O)cc1	nt	1	-8	1.3	-6.4	-0.4	1	1.6
Cc1cccc(-c2noc(CCC(=O)Nc3ccccc3)n2)c1	27%	1	-1	6.2	8.4	-1.0	-1	nt
CC(C)CC(CO)N1CCN(C(=O)c2ccc(Cl)cc2Cl)CCC1=O (stereo not drawn)	-3%	4	-8	2.0	2.2	0.5	-26	39*
CC1=NOC(=O)/C1=C/c1ccc(N(C)C)cc1	17%	-14	-6	-3.3	-2.5	-0.2	-10	nt
CCCCCNC(=O)c1c[nH]c2ccc(S(=O)(=O)N3CCC4(CC3)OCCO4)cc2c1=O	-15%	-14	nt	-0.3	5.7	0.4	12	1.2
CC(C)(C)n1nc2c(c1NC(=O)c1ccc(S(=O)(=O)N3CCCCC3)cc1)CS(=O)C2 (stereo not drawn)	-3%	nt	-8	nt	-2.0	0.3	nt	nt
CCOc1ccc(C2C(C#N)=C(N)Oc3nc[nH]c(=O)c32)cc1 (stereo not drawn)	nt	-18	1	3.8	0.6	0.5	4	3.1
O=c1cc(CO)oc(C(Nc2ccccn2)c2ccccc2Cl)c1O (stereo not drawn)	9%	-2	-8	1.9	0.2	?	-17	14
CC(C)COc1ccc(C(=O)NC(=S)Nc2ccc(CN3CCOCC3)cc2)cc1	nt	2	-14	1.0	-3.0	2.1	-1	-5.2
CC1CN(C(=O)CN2C(=O)NC3(CCCCCC3)C2=O)CC(C)O1 (stereo not drawn)	4%	-14	-2	?	-1.9	0.2	-6	nt
O=C(O)CNC(=S)N(Cc1ccccc1)Cc1cccs1	nt	20	-1	nt	-1.7	0.9	10	-1.9
COc1ccc(C2NCCc3c2[nH]c2ccccc32)cc1CSc1nc2ccccc2s1 (stereo not drawn)	-5%	37	-3	-2.8	-0.5	-0.2	19	10
COc1ccccc1-n1cnnc1SCC(=O)Nc1cc(C)on1	nt	-4	1	-1.4	-1.3	0.9	1	-1.3
(list continues)
SMILES	Vif TR-FRET	Calb FLC	Beta cell apopt	RanGTP-Imp inh	LANA-H2A inh	A1 inh	T cruzi repl	MLL AF4-AF9 inh
CCCSc1nnc2n(N)c(=O)c3ccccc3n12	28%	17	-5	-0.7	-4.9	0.2	16	nt
CC(=O)c1cccc(N(CC(=O)NC2CCCC2)C(=O)CNC(=O)c2cccs2)c1	nt	2	3	-1.0	-6.3	-0.3	-1	-1.2
COCCNC(=O)COc1ccc(C)c(C)c1	2%	-6	-3	0.2	-4.2	-0.2	-5	nt
CN1CCC(N(C)S(=O)(=O)c2ccc(NC(=O)COc3ccc(F)cc3Cl)cc2)CC1	-1%	-18	-3	2.3	0.3	0.7	43	4.3
COc1ccc(C2c3ccc(O)cc3Oc3ncn(CCCO)c(=N)c32)cc1 (stereo not drawn)	?	-6	7	7.5	-0.9	-0.3	-21	2.6
COc1ccccc1CC(=O)NCCc1ccccc1	nt	-19	1	-0.1	-0.6	-0.1	9	1.1
Cc1nc2c(C)cccn2c1/C(O)=C1\C(=O)C(=O)N(CCN(C)C)C1c1ccncc1 (stereo not drawn)	0%	-1	-6	2.4	-3.8	1.1	-6	2.5
CCOC(=O)c1c2c3c(cccc3n(C)c1=O)C(=O)c1ccccc1-2	nt	-5	nt	-27	3.6	-0.5	9	-5.8
COc1ccccc1NC(=O)NCc1ccccc1F	nt	-4	0	-0.5	1.4	0.0	-6	-4.9
CC(C)(C)C(=O)Nc1nc(-c2ccccc2)ns1	7%	3	2	-2.8	-5.7	0.3	3	nt
CC(=O)CCN1C(=O)NC2(CCCc3ccccc32)C1=O (stereo not drawn)	-2%	1	-5	3.8	0.5	0.5	-11	-3.7
Cc1ccc(C2=NCCn3c2c2ccc(C(F)(F)F)cc2[n+]3[O-])cc1	nt	35	-2	2.7	6.6	-0.4	-27	-0.5
CCN(C(=O)COC(=O)c1c2c(nc3ccccc13)/C(=C/c1ccccc1)CC(C)C2)C1CCS(=O)(=O)C1 (stereo not drawn)	7%	?	-3	-0.4	-0.7	0.7	44	nt
Cc1cnc(C(=O)Nc2ccc(C)c(S(=O)(=O)N(C)C)c2)cn1	nt	?	-1	-4.3	nt	1.8	-19	2.9
Cc1cc2oc(=O)cc(CN3CCC(C)CC3)c2c(C)c1Cl	-9%	2	0	-2.1	3.5	0.9	-9	nt
Cc1ccc(Cn2c(=O)c3cccnc3n(CC(=O)Nc3cccc(C(F)(F)F)c3)c2=O)cc1	14%	-32	-3	-0.8	-0.2	1.0	39	1.2
C/C(=N\NC(=O)CCc1c[nH]c2ccccc12)c1cccc([N+](=O)[O-])c1	16%	-15	-2	1.4	-2.5	0.5	9	nt
COc1ccc(Cc2nnc(NC(=O)c3ccccc3)s2)cc1OC	nt	6	-6	-2.1	0.5	0.7	-23	-4.7
COc1ccc(N=Cc2sc(O)c3ccccc23)cc1	10%	-31	7	0.1	-15	-6.8	-11	nt
COc1ccccc1NC(=O)c1ccc(Br)c(S(=O)(=O)N2CCCC2)c1	-1%	-5	nt	1.8	-13	-0.5	20	0.7
O=C1CSC(=S)N1/N=C/c1ccc(C(F)(F)F)cc1	5%	75	nt	?	1.8	0.1	-5	1.0
O=C1c2ccccc2NC(c2ccc(-c3cccc(F)c3)o2)N1O (stereo not drawn)	nt	nt	-1	nt	-2.4	-1.9	nt	12
COc1ccc(Nc2oc(-c3ccccc3Cl)nc2C#N)cc1	-2%	-16	36	0.3	-4.1	0.2	-27	0.1
Cc1ccc(-c2nnn(CC(=O)N(Cc3cccs3)C(C(=O)NCC3CCCO3)c3ccco3)n2)o1 (stereo not drawn)	0%	-21	-2	-0.7	5.6	-1.0	15	nt
CN(CC(=O)NCCc1ccccc1)Cc1ccco1	nt	3	0	-0.7	2.2	0.7	-3	2.3

Sorted by formula weight (rising): part of the list above.
SMILES	Vif TR-FRET	Calb FLC	Beta cell apopt	RanGTP-Imp inh	LANA-H2A inh	A1 inh	T cruzi repl	MLL AF4-AF9 inh
COc1ccccc1CC(=O)NCCc1ccccc1	nt	-19	1	-0.1	-0.6	-0.1	9	1.1
CN(CC(=O)NCCc1ccccc1)Cc1ccco1	nt	3	0	-0.7	2.2	0.7	-3	2.3
CCCSc1nnc2n(N)c(=O)c3ccccc3n12	28%	17	-5	-0.7	-4.9	0.2	16	nt
Cc1ccc(C2=NCCn3c2c2ccc(C(F)(F)F)cc2[n+]3[O-])cc1	nt	35	-2	2.7	6.6	-0.4	-27	-0.5
C/C(=N\NC(=O)CCc1c[nH]c2ccccc12)c1cccc([N+](=O)[O-])c1	16%	-15	-2	1.4	-2.5	0.5	9	nt

Next part.
SMILES	Vif TR-FRET	Calb FLC	Beta cell apopt	RanGTP-Imp inh	LANA-H2A inh	A1 inh	T cruzi repl	MLL AF4-AF9 inh
CCN(Cc1ccccc1)C(=O)C1CCN(S(=O)(=O)c2ccc3c(c2)OCCO3)CC1	3%	-5	-4	-1.9	-3.3	-0.3	-10	-1.6
CC(C)NC(=O)NC(=O)COC(=O)c1ccc(OC(F)(F)F)cc1	1%	-14	-8	5.7	-1.1	0.3	2	nt
CCOC(=O)c1c(NC(=O)COC(=O)/C=C/c2ccccc2)sc(C(=O)NC)c1C	-2%	nt	2	nt	nt	0.1	nt	-3.9
CN(C)c1ccc(CN2CCCCC2)cc1	12%	-3	3	11	1.0	0.3	46	nt
CC(=O)c1ccccc1NS(=O)(=O)c1cccc2nsnc12	nt	-3	nt	-2.1	2.4	0.7	-1	-1.1
Cc1ccc(NC(=O)CSCC(=O)Nc2cc(C(F)(F)F)ccc2N2CCOCC2)cc1	0%	5	0	0.9	1.1	0.6	24	nt
COc1ccc(NC(=O)Cn2nnc(-c3ccc(CN4CCOCC4)cc3)n2)c(OC)c1	?	-6	-5	0.9	3.6	1.0	10	nt
COc1ccc([C@H]2CC(=O)C=C(c3ccc(C)cc3)C2)cc1	nt	nt	-9	nt	-1.6	0.0	nt	-0.1
O=C(O)c1cccc(NS(=O)(=O)c2ccc3c4c(cccc24)C(=O)N3)c1	nt	3	2	-4.2	-0.4	-0.5	-3	-0.3
COc1ccc(CN2C(=O)C(Cc3ccccc3)Nc3ncnc(N4CCCCC4)c32)cc1 (stereo not drawn)	nt	-14	nt	0.1	-6.1	-0.2	-9	nt
Cc1ccc(S(=O)(=O)N2CCC(C(=O)N[C@H](C(=O)NCC3CCCO3)C(C)C)CC2)cc1 (stereo partly drawn)	?	-3	-1	5.9	-4.9	-1.0	-13	nt
Cc1ccc(NC(=O)COC(=O)[C@H](C)NC(N)=O)c(C)c1	-1%	-5	-2	6.7	1.6	-0.9	-2	-1.6
COC(=O)CNC(c1ccccc1Cl)c1cc(Br)ccc1NC(=O)CCN1CCOCC1 (stereo not drawn)	7%	-4	-6	23	1.5	0.8	30	nt
CCCn1c(N)c(N(CCOC)C(=O)/C=C/c2ccc(C(=O)OC)cc2)c(=O)[nH]c1=O	nt	5	nt	5.2	-5.5	1.3	0	-0.3
Cc1ccccc1C(=O)Nc1ccccc1C(=O)NC1CC1	nt	10	-1	4.9	-0.7	-1.7	-4	-4.8
Cc1oc2ccc(O)cc2c1C(=O)c1ccc(F)cc1	nt	-3	-3	-8.4	1.2	-0.2	-7	-13
